High-throughput results as filed in PubChem.
Vaccinia Venus – vaccinia inhibition (Venus reporter); Vaccinia virus Venus reporter expression, fluorescence; Potency, µM (top dose mostly 36.5 µM), without a hit: at the highest dose activity change, negative = inhibition, usual class: inhibitors; 0.46% of 330,000 active; active means well fitted inhibition curve with a large enough effect; inconclusive means small, poorly fitted or top-dose-only effect; inactive means no such curve, though single readings can be large or run the other way; tested in A549 cells; note: nearly all actives have a fitted effect of over 30% in size; inactives centre near -10
Vaccinia mCherry – inhibitors of vaccinia virus infection (mCherry reporter signal); AID 720579; Potency, µM (series often up to 36.5 µM), for inactives: top-dose activity change, negative = inhibition, actives largely listed as inhibitors; Vaccinia virus mCherry reporter infection, fluorescence; about a quarter of the inactives have no number; 0.63% of 310,000 active; active = well fitted inhibition curve with a large enough effect; inconclusive = small, poorly fitted or top-dose-only effect; inactive = no such curve, though single readings can be large or run the other way; tested in A549 cells; note: nearly all actives have a fitted effect of over 35% in size; inactives centre near -10
* marks the source's active call; other numbers are inactive results; i = inactive; ? = inconclusive; . = not tested or not shown; [ ] = dose if it differs, or a comment. % is set by controls: 0 for no effect and ±100 for the full control effect; potency is the fitted concentration of half-maximal effect.

Compound	Vaccinia Venus	Vaccinia mCherry
Cc1c(N2C(=O)c3cccc4cccc(c34)C2=O)cnn1C	-6%	-10%
O=C(O)c1c(C(=O)O)c(-c2ccc(F)cc2)n2c1CCC2	7%	-2%
CCC12CN3CC(CC)(CN(C1)C3c1ccc(OCc3ccccc3)cc1)C2=O (configuration not stated)	0%	-7%
C#CCNC(=O)C(C)c1ncc(C(F)(F)F)cc1Cl (configuration not stated)	-9%	-4%
CCC1(C)CC(=O)c2c(ccc3oc(C(=O)NCc4ccccc4)c(C)c23)O1 (configuration not stated)	-7%	-4%
Cn1ncc(Br)c1C(=O)N1CCCC1	-2%	-10%
Cc1cc2nc(-c3cccc(NC(=O)c4ccc(Br)o4)c3C)oc2cc1C	-6%	?
CN(C)/C=N/c1c(C#N)cnn1-c1ccccc1	-14%	i
CCOC(=O)N1CCN(C(=O)c2ccc3c(=O)n(Cc4ccccc4)c(=S)[nH]c3c2)CC1	-4%	-5%
CCc1c(C)nc2c(C#N)c(C)[nH]n2c1=O	-14%	-18%
Cc1cc(/C=C2\SC(=S)N(Cc3ccco3)C2=O)c(C)n1-c1cccnc1	14%	0%
CCC(CC)C1=NN2C(=N)/C(=C\c3cc(C)n(-c4cccc(C)c4)c3C)C(=O)N=C2S1	-2%	i
Cc1ccccc1-n1c(/C=C/c2c(C)[nH]c3ccccc23)nc2ccccc2c1=O	-27%[7.34 µM]	?
CC(C)C(=O)Nc1cccc(C(=O)Nc2ccc(S(=O)(=O)Nc3nccs3)cc2)c1	2%	-10%
Cc1sc2ncn(CC(=O)N3CCCC(C)C3)c(=O)c2c1S(=O)(=O)N1CCCCC1 (configuration not stated)	-4%	i
COC(=O)[C@@H](Cc1ccccc1)NC(=O)CC[C@H]1O[C@@H](n2cc(C)c(=O)[nH]c2=O)C[C@@H]1O	7%	i
CC1(c2ccc(OC(F)F)cc2)NC(=O)N(CC(=O)Nc2ccc(OC(F)F)cc2)C1=O (configuration not stated)	-1%	-6%
CC1(C)NC(=O)N(CC(=O)N2CCN(S(=O)(=O)c3ccccc3C(F)(F)F)CC2)C1=O	-19%	-13%
CN(C)C(=O)c1cccc(-c2cnc3sc(NCc4ccc5c(c4)OCO5)nn23)c1	-19%	9%
CN(C)S(=O)(=O)c1ccc(C(=O)NCc2ccco2)cc1	-10%	-4%
CN(C)S(=O)(=O)c1cccc(C(=O)NCC2CCCCC2)c1	-6%	-4%
CCN(CC)c1ccc(CNCCCSc2nnnn2C)cc1	-12%	-21%
COc1ccccc1CNc1ncnc2ccc(-c3cccnc3)cc12	-7%	-11%
COc1ccc(CCN2C(=O)CN(C3CCCCCC3)C(=O)C2c2ccc(Cl)cc2)cc1OC (configuration not stated)	-11%	-9%
O=C(CSc1ccc(-c2ccc(Br)cc2)nn1)N1CCOCC1	-18%	i
COc1cc2c(cc1O)C(SC)=NC(C)(C)C2	-19%	-6%
O=C(c1ccc(F)cc1F)N1CCCC(c2nc(-c3ccc(F)cc3)no2)C1 (configuration not stated)	-25%	i
O=C(c1ccccc1-n1cccc1)N1N=C(C(F)F)CC1(O)C(F)F (configuration not stated)	-10%	i
COC(=O)c1ccc(NC(=O)Nc2ccc(F)cc2)cc1	?	.
Cc1ccc(C2C3=C(CC(C)(C)CC3=O)N=C3c4ccccc4C(=O)C32)cc1 (configuration not stated)	-27%	?
CC(C)C[C@H]1COCCS(=O)(=O)N1Cc1cccc(Cl)c1	-19%	i
CCN1CCN(C(c2ccccc2Cl)c2c(O)cc(C)n(Cc3ccco3)c2=O)CC1 (configuration not stated)	-20%	-17%
CCOc1ccc(NC(=O)CN2C(=O)C3CCCN3C2=O)cc1 (configuration not stated)	-5%	-3%
COc1ccc(NC(=O)NNC(=O)c2ccc(Cl)cc2Cl)cc1OC	-5%	3%
COc1ccc(NS(=O)(=O)c2cc(NC(=O)C3CC3)ccc2N2CCOCC2)cc1	-10%	-12%
CC(=O)Nc1ccc(S(=O)(=O)N(C2=NCC(C)S2)c2ccccc2)cc1 (configuration not stated)	-23%	.
Fc1cccc(Cl)c1CNc1ccc(N2CCCC2)cc1	-20%	-19%
Cc1ccc2c(Cl)cc(Cl)c(OCC(=O)Nc3cccc(S(=O)(=O)N(C)C)c3)c2n1	-3%	-27%
OCC[C@H]1C[C@H](O)[C@@H](O)[C@@]2(Cc3ccccc3CCO2)O1	-1%	-13%
O=C(NNS(=O)(=O)c1ccc(F)cc1)c1cccc(O)c1	-21%	-2%
Cc1nc2ccc(NC(=O)Cc3ccc(Br)cc3)cc2s1	-6%	i
Cc1cc(C(=O)N(C)C)sc1-c1ccccc1	-17%	-2%
Cc1c(CCC(=O)NCCc2ccc(Cl)cc2)c(=O)oc2c(C)c(O)ccc12	8%	-2%
C[C@@H]1CCCCO[C@@H](CN(C)C(=O)C2CCCCC2)[C@@H](C)CN([C@H](C)CO)C(=O)c2cc(NC(=O)NC3CCCCC3)ccc2O1	?	-13%
Cc1noc(C)c1-c1ccc(C(=O)NCc2ccc(Cl)cc2)c2occc12	0%	37%[activator]
COc1ccc2[nH]c(C(=O)N3CCNCC3)cc2c1OC	-16%	-10%
Cc1nn(-c2ccccc2)c(OC(=O)c2cccc(Br)c2)c1S(=O)(=O)c1ccccc1	-3%	-7%
CC1CCN(C(=O)c2nc[nH]c2C(=O)O[C@H](C)c2ccccc2)CC1	-12%	-28%
CC(=O)Oc1ccc(C(=O)[C@H]2[C@H]3C(=O)N(c4ccc(C)cc4)C(=O)[C@H]3[C@@H]3C=CC=NN32)cc1	-2%	0%
COc1ccccc1-c1cccc(-c2nc(C(=O)Nc3nccs3)cc3c2[C@@H](CCO)N(C(C)=O)C3)c1	-6%	-11%

5 compounds out of the list, sorted by length of the SMILES, low to high.
Compound	Vaccinia Venus	Vaccinia mCherry
Cc1cc(C(=O)N(C)C)sc1-c1ccccc1	-17%	-2%
CC1CCN(C(=O)c2nc[nH]c2C(=O)O[C@H](C)c2ccccc2)CC1	-12%	-28%
Cc1nn(-c2ccccc2)c(OC(=O)c2cccc(Br)c2)c1S(=O)(=O)c1ccccc1	-3%	-7%
COc1ccccc1-c1cccc(-c2nc(C(=O)Nc3nccs3)cc3c2[C@@H](CCO)N(C(C)=O)C3)c1	-6%	-11%
CC(=O)Oc1ccc(C(=O)[C@H]2[C@H]3C(=O)N(c4ccc(C)cc4)C(=O)[C@H]3[C@@H]3C=CC=NN32)cc1	-2%	0%

The list goes on.
Compound	Vaccinia Venus	Vaccinia mCherry
c1ccc(CSCCc2ccncc2)cc1	-19%	.
O=c1ccccn1CCOc1ccccc1Cl	-18%	-15%
Cc1cc(NS(=O)(=O)c2ccc(NC(=O)N[C@H](C(=O)O)C(C)C)cc2)no1	-8%	i
CCc1ccc(NCc2nc(-c3ccccc3)no2)cc1	-9%	-5%
CCc1ccccc1-n1cnc2cc(C(=O)NC3CCCCCC3)ccc21	-8%	-16%
CCCn1nnc(NC(=O)c2cccnc2Cl)n1	-5%	i
C/C(=N/NC(=O)c1cc(-c2ccc(Cl)s2)[nH]n1)c1ccco1	6%	i
CCNc1nc(NC(N)=S)nc(NC(C)(C)C)n1	-10%	-9%
C=Cc1ccc(CN2C(=O)c3ccccc3Sc3ccc(C(=O)OCc4ccco4)cc32)cc1	-3%	-11%
CN1C(=O)[C@H]2[C@@H](/C=C/c3ccccc3)N3C(=O)CN(CC4CC4)C(=O)[C@@]3(C)[C@H]2C1=O	-14%	i

Overlap with the part before: 5 entries; new compounds follow.
Compound	Vaccinia Venus	Vaccinia mCherry
CCCn1nnc(NC(=O)c2cccnc2Cl)n1	-5%	i
C/C(=N/NC(=O)c1cc(-c2ccc(Cl)s2)[nH]n1)c1ccco1	6%	i
CCNc1nc(NC(N)=S)nc(NC(C)(C)C)n1	-10%	-9%
C=Cc1ccc(CN2C(=O)c3ccccc3Sc3ccc(C(=O)OCc4ccco4)cc32)cc1	-3%	-11%
CN1C(=O)[C@H]2[C@@H](/C=C/c3ccccc3)N3C(=O)CN(CC4CC4)C(=O)[C@@]3(C)[C@H]2C1=O	-14%	i
COc1ccc(C=O)cc1Cn1c(=O)n(CCC(=O)NCc2ccco2)c(=O)c2sccc21	-7%	i
Clc1ccccc1Cn1nnc2c(N3CCOCC3)nc(C3CC3)nc21	-2%	i
Cc1cc(C)n(C(=O)COc2ccccc2C)n1	-9%	-19%
CCOC(=O)c1cc2c(cn1)[C@@H](CCO)NC2	6%	i
NC(=O)C1CCN(C(=O)C2(NC(=O)Nc3cccc(F)c3)CCCCC2)CC1	-6%	-2%
CCc1ccc(NC(=O)CC2C(=O)OCCN2CC)cc1 (configuration not stated)	-4%	-12%
COc1cc(OC)c(NC(=O)Nc2nnc(N(C)C3CCCCC3)s2)cc1Cl	-21%	-19%
CCc1ncc(C)[nH]1	-12%	0%
COc1ccc2c(c1)C(=O)N(c1ccccc1OC)C(=O)C2	-9%	-15%
CC(C)N(CCc1ccncc1)C(=S)Nc1cccc(Cl)c1	0%	-4%
C=CCCN(C1CCCC1)S(=O)(=O)c1ccccc1Br	-24%	-8%
COC(=O)COc1ccc(S(=O)(=O)Nc2ccc(NC(C)=O)cc2)cc1	-15%	i
CCCNC(=O)CN(C)S(=O)(=O)c1ccc(F)cc1	-6%	i
CC1CCCCN1S(=O)(=O)c1cc2c3c(c1)CC(=O)N3CCC2 (configuration not stated)	-6%	-6%
COc1ccc(N2CCN(c3ccc([N+](=O)[O-])nc3)CC2)cc1	-5%	-12%
Cc1cc(C)c(OCC(=O)N(Cc2ccco2)Cc2ccco2)c(C)c1	-6%	1%
Cc1cc(-c2nnc(SCC(=O)Nc3nc(-c4ccc(Cl)cc4)cs3)o2)no1	-7%	?
O=C(O)c1cc2ccc(O)cc2oc1=O	-14%	12%
COc1ccc(C2NC(C(=O)O)Cc3c2[nH]c2ccccc32)cc1OC (configuration not stated)	-4%	-15%
CC(=O)C1C(=O)CC(C)(O)C(C(C)=O)C1c1ccccc1 (configuration not stated)	-9%	i
CCOc1ccc(N2CC(C(=O)NCCCc3ccccc3)CC2=O)cc1 (configuration not stated)	-23%	-26%
Cn1c(NC(=O)c2ccccc2Br)cc(=O)n(C)c1=O	1%	i
CC(=O)N1c2ccc([N+](=O)[O-])cc2NC(=O)CC1C (configuration not stated)	-12%	-5%
Cc1ccc(O)c(CN(C)Cc2cc(C)ccc2O)c1	-27%	?
COc1ccc(C2/C(=C(/O)c3ccccc3)C(=O)C(=O)N2C)cc1 (configuration not stated)	-8%	.
CC(=O)Nc1ccc(S(=O)(=O)Nc2c(C)n(C)n(-c3ccccc3)c2=O)cc1	-11%	i
C/C(=N\Nc1ccc(Cl)nn1)c1ccccc1O	?	?
O=C(N=C1SC2CS(=O)(=O)CC2N1Cc1ccc(F)cc1)C1CC1 (configuration not stated)	-4%	i
O=C(c1ccccc1)N1CCCCC1	5%	6%
COc1ccccc1/C=C1\SC(=S)N(CCC(=O)Nc2ccc(C(=O)O)c(O)c2)C1=O	-8%	i
